Vaccinia mCherry = vaccinia inhibition (mCherry reporter); Vaccinia virus mCherry reporter infection, fluorescence; about a quarter of the inactives have no number; Potency, µM (titrated, usually from 36.5 µM), for the others: top-dose activity change, negative = inhibition, most hits filed as inhibitors; hit rate 0.63% among 310,000; AID 720579; active = well fitted inhibition curve with a large enough effect; inconclusive = small, poorly fitted or top-dose-only effect; inactive = no such curve, though single readings can be large or run the other way; tested in A549 cells; also: nearly all actives have a fitted effect of over 35% in size; inactives centre near -10
Vaccinia Venus = inhibitors of vaccinia virus (Venus reporter); Vaccinia virus Venus reporter expression, fluorescence; Potency, µM (doses to about 36.5 µM), for inactives: at the highest dose activity change, negative = inhibition, usual class: inhibitors; hit rate 0.46% among 330,000; active means well fitted inhibition curve with a large enough effect; inconclusive means small, poorly fitted or top-dose-only effect; inactive means no such curve, though single readings can be large or run the other way; tested in A549 cells; also: nearly all actives have a fitted effect of over 30% in size; inactives centre near -10
Numbers without * were called inactive; & = joins results of further samples; [ ] = another dose, or the depositor's remark. % is scaled to controls: 0 for no effect and ±100 for the full control effect; potency is read from the fitted curve at half-maximal effect.

Screening O=C(COC(=O)c1ccc2c(c1)OCCO2)NC1CCCCC1 returned Vaccinia mCherry -11% and Vaccinia Venus -7%.
For Nc1nc(NCc2ccccc2)n(-c2ccccc2)n1 the results were Vaccinia mCherry -12% and Vaccinia Venus 1%.
`O=C1COc2ccc(S(=O)(=O)N3CCCC3)cc2N1` gave Vaccinia mCherry -28% and Vaccinia Venus -2%.
Screening COc1ccc(OCC(=O)O/N=C(\N)Cc2ccc(Cl)cc2)cc1 returned Vaccinia mCherry -19% and Vaccinia Venus -12%.
`COCCCNC(=O)c1cc2cc(S(=O)(=O)N3CCCCC3)ccc2n1C` gave Vaccinia mCherry -21% and Vaccinia Venus -18%.
Screening Cc1nc2ccccc2nc1OCC(=O)Nc1cc(C(F)(F)F)ccc1N1CCOCC1 returned Vaccinia Venus -21%.
Screening C[C@H](NC(=O)c1nc[nH]c1C(=O)NCC(=O)OCc1ccccc1)C(=O)OC(C)(C)C returned Vaccinia mCherry -1% and Vaccinia Venus -15%.
CC(=O)Nc1ccc(-c2csc(NC(=O)c3ccc(C)o3)n2)cc1 was read as Vaccinia Venus -6%.
Screening Cc1[nH]c2ccccc2c1C(=O)C(=O)NC1CC(=O)N(c2ccc(F)cc2)C1 (stereo not given) returned Vaccinia mCherry -11% and Vaccinia Venus -15%.
For COc1ccc(CC(=O)OCC(=O)N2CCN(S(=O)(=O)c3ccc(C)cc3C)CC2)cc1 the results were Vaccinia mCherry -15% and Vaccinia Venus -12%.
COc1cccc(C(O)c2nc(-c3ccc(C)c(C)c3)cs2)c1 (stereo not given) was read as Vaccinia mCherry 2% and Vaccinia Venus -9%.
Screening O=C(c1cc(C(=O)NCCc2ccccc2)c(=O)n(CCc2ccccc2)c1)c1cc(Cl)ccc1O returned Vaccinia mCherry 0% and Vaccinia Venus -14%.
`Cc1c(Br)c(C(=O)N2CCc3ccccc32)nn1C` gave Vaccinia mCherry inactive and Vaccinia Venus -16%.
Cc1cc(C)c(C(=O)C(C)OC(=O)c2ccc(Cl)nc2)cc1C (stereo not given) was read as Vaccinia mCherry -8% and Vaccinia Venus -11%.
`COc1ccc(S(=O)(=O)N2CCC(C(=O)NC3CCCCC3C)CC2)cc1` (stereo not given) gave Vaccinia mCherry -2% and Vaccinia Venus 3%.
For CNC(=O)C1Cc2ccccc2CN1S(=O)(=O)c1cccs1 (stereo not given) the results were Vaccinia mCherry inactive and Vaccinia Venus -16%.
Screening COc1ccccc1OCc1ccc(C(=O)N(C)C)o1 returned Vaccinia mCherry -11% and Vaccinia Venus -14%.
For c1ccc(CCCCc2ccccn2)cc1 the results were Vaccinia mCherry -7% and Vaccinia Venus 1%.
Screening Cc1ccc(S(=O)(=O)NCc2ccccc2)cc1C(=O)N1CCCCCCC1 returned Vaccinia mCherry -25% and Vaccinia Venus -9%.
For Cc1c(CN(C)C(=O)C2CCC(=O)N(Cc3ccccc3F)C2)[nH]c2ccccc12 (stereo not given) the results were Vaccinia mCherry -14% and Vaccinia Venus -11%.
Screening Cc1ccc(C(=O)N2c3ccccc3N=C(c3ccccc3)C2C(=O)NC(C)C)cc1 (stereo not given) returned Vaccinia mCherry -27% and Vaccinia Venus -14%.
COCCNC(=O)NC(=O)COC(=O)c1cc([N+](=O)[O-])ccc1Sc1nc(C)cs1 was read as Vaccinia mCherry inactive and Vaccinia Venus -16%.
O=C(CN(CC1CCCO1)C(=O)CNS(=O)(=O)c1ccccc1)NCc1ccc(F)cc1 (stereo not given) was read as Vaccinia mCherry inactive and Vaccinia Venus 0%.
`CCN1C(=O)[C@@H]2[C@@H]3CN(S(=O)(=O)c4ccc(C)cc4)[C@@H](c4cccc5ccccc45)[C@@H]3C(=O)C[C@@H]2C1=O` gave Vaccinia mCherry 5% and Vaccinia Venus 2%.
For O=C(c1ccc(C(F)(F)F)cc1)C1CCCN(C(=O)CCc2cnccn2)C1 (stereo not given) the results were Vaccinia mCherry -2% and Vaccinia Venus -10%.
`CCCn1c(N)c(N(CCOC)C(=O)c2cccc(S(=O)(=O)N3CCCc4ccccc43)c2)c(=O)[nH]c1=O` gave Vaccinia mCherry inactive and Vaccinia Venus -15%.
For Cc1nc(-c2ccc(S(=O)(=O)N(Cc3ccccc3)C(C)C)cc2)co1 the results were Vaccinia mCherry -12% and Vaccinia Venus -8%.
For C[C@H](CO)N1C[C@H](C)[C@@H](CN(C)S(C)(=O)=O)Oc2c(NC(=O)Nc3ccc4c(c3)OCO4)cccc2C1=O the results were Vaccinia mCherry -9% and Vaccinia Venus -9%.
For COCCCNc1nc(N)c([N+](=O)[O-])c(Nc2ccccc2OC)n1 the results were Vaccinia mCherry -11% and Vaccinia Venus -11%.
`CCn1c(CN2CCCCC2)nc2cc(NC(=O)COc3ccc(C(C)(C)C)cc3)ccc21` gave Vaccinia mCherry -26% and Vaccinia Venus -15%.
For Cn1cc(C(=O)Nc2ccc(C#N)cc2)c2ccccc2c1=O the results were Vaccinia mCherry 14%&-9% and Vaccinia Venus 0%&0%.
COc1ccc(Cc2nc3ccc(C(=O)NCCc4ccccc4)cc3o2)cc1 was read as Vaccinia mCherry -11% and Vaccinia Venus -24%.
Screening COCCN(C(=O)COC(=O)c1ccc(-c2ccccc2)cc1)c1c(N)n(Cc2ccccc2)c(=O)[nH]c1=O returned Vaccinia mCherry inconclusive and Vaccinia Venus inconclusive.
COc1cc(CC(=O)Nc2c(-c3ccccc3)[nH][nH]c2=O)cc(OC)c1 was read as Vaccinia mCherry inactive and Vaccinia Venus -6%.
Screening CC1(C)CN(c2ccc(CC#N)cc2)C1=O returned Vaccinia mCherry -3% and Vaccinia Venus -7%.
COC(=O)c1c(NC(=O)c2ccco2)sc2c1C(C(=O)OC)CC2 (stereo not given) was read as Vaccinia Venus -18%.
Cc1ccc(O)c(NC(=O)c2nc3nc(C)cc(C(F)F)n3n2)c1 was read as Vaccinia mCherry -25% and Vaccinia Venus -27%.
For CCOC(=O)c1cc(-c2ccccc2)n(CCC(=O)NCc2ccccc2Cl)c1C the results were Vaccinia mCherry -8% and Vaccinia Venus -8%.
For C1=CCC(CN2CCNCC2)CC1 (stereo not given) the results were Vaccinia mCherry -5% and Vaccinia Venus -5%.
For O=C(Cc1cccs1)N/N=C/c1ccco1 the results were Vaccinia mCherry -12% and Vaccinia Venus -12%.
For Cc1cc(OCCn2cc(C(=O)c3cccs3)c3ccccc32)ccc1Cl the results were Vaccinia mCherry -5% and Vaccinia Venus -16%.
`CCC(=O)c1ccc(N2CCC(C)CC2)c(F)c1` gave Vaccinia mCherry 4% and Vaccinia Venus -7%.
O=C(NCCCO)C(=O)c1c(-c2ccccc2)cc2ccccn12 was read as Vaccinia mCherry -1% and Vaccinia Venus -12%.
For CCOC(=O)C1CCN(c2ccc(C(=O)O)cc2[N+](=O)[O-])CC1 the results were Vaccinia mCherry -11% and Vaccinia Venus -12%.
For O=c1cc(CN2CCN(c3cccc(Cl)c3)CC2)c2cc3c(cc2o1)CCCC3 the results were Vaccinia mCherry inactive and Vaccinia Venus -4%.
Screening COc1ccc2cc(C(C)=O)c(=O)oc2c1 returned Vaccinia mCherry inactive and Vaccinia Venus -5%.
Screening O=C(COC(=O)C1CCN(c2ccc(C(F)(F)F)cn2)CC1)Nc1cccc(F)c1 returned Vaccinia mCherry -7% and Vaccinia Venus -5%.
Screening Cc1c(C(=O)NCc2ccccc2Cl)sc2nc3n(c(=O)c12)CCC3 returned Vaccinia mCherry -3%[7.34 µM] and Vaccinia Venus -4%[7.34 µM].
Screening Cc1nn(-c2ccccc2)nc1C(=O)NNC(=O)c1ccc(C(F)(F)F)cc1 returned Vaccinia mCherry -2% and Vaccinia Venus 15%.
Screening COc1ccccc1-c1cnc2c(c1)C(=O)N([C@@H](C)CO)C[C@@H](C)[C@@H](CN(C)C(C)=O)O2 returned Vaccinia mCherry inactive and Vaccinia Venus -9%.
For Cc1ccccc1NC(=O)c1c(C)oc2ccc(O)c(CN3CCC(C)CC3)c12 the results were Vaccinia mCherry -1% and Vaccinia Venus -4%.
`Cc1ccc(NC(=O)CN(C)C(=O)c2cccc(Br)c2)cc1` gave Vaccinia mCherry inactive and Vaccinia Venus -14%.
For COc1cc(OC)c2c(-c3ccccc3)cc(=O)oc2c1C(CC(=O)N1CCN(c2ccccc2)CC1)c1ccc(N(C)C)cc1 (stereo not given) the results were Vaccinia mCherry inconclusive and Vaccinia Venus -19%.
Screening CSCC[C@H](N)C(=O)N1CCC(C(=O)N[C@@H](C)C(=O)NCc2ccc(F)cc2)CC1 returned Vaccinia mCherry 6% and Vaccinia Venus 7%.
For COc1cccc(-c2cccc(NC(=O)C3CCN(Cc4ccc(CO)o4)CC3)c2)c1 the results were Vaccinia mCherry inconclusive and Vaccinia Venus -15%.
O=C(CSc1nnc(C2CC2)n1C1CC1)c1cc(F)ccc1F was read as Vaccinia mCherry inactive and Vaccinia Venus -9%.
`Cc1ccc(-n2c(SCC(=O)NCCN3C(=O)CSC3=O)nnc2-c2ccccc2F)cc1` gave Vaccinia mCherry -14% and Vaccinia Venus 3%.
`CC(C)n1ncc2c(C(=O)N3CCN(Cc4cccs4)CC3)cc(C3CC3)nc21` gave Vaccinia mCherry inactive and Vaccinia Venus -12%.
Screening CCOc1ccc(N(C)S(=O)(=O)c2cc(-c3cnc(C)o3)ccc2OC)cc1 returned Vaccinia mCherry -20% and Vaccinia Venus -11%.
For O=C(CN1C(=O)CSc2ccc(S(=O)(=O)N3CCCC3)cc21)Nc1cccc(Cl)c1 the results were Vaccinia mCherry -8% and Vaccinia Venus -14%.

Reprinted from the listing for reference:
Screening O=C(COC(=O)c1ccc2c(c1)OCCO2)NC1CCCCC1 returned Vaccinia mCherry -11% and Vaccinia Venus -7%.
For Nc1nc(NCc2ccccc2)n(-c2ccccc2)n1 the results were Vaccinia mCherry -12% and Vaccinia Venus 1%.
`O=C1COc2ccc(S(=O)(=O)N3CCCC3)cc2N1` gave Vaccinia mCherry -28% and Vaccinia Venus -2%.
Screening COc1ccc(OCC(=O)O/N=C(\N)Cc2ccc(Cl)cc2)cc1 returned Vaccinia mCherry -19% and Vaccinia Venus -12%.
`COCCCNC(=O)c1cc2cc(S(=O)(=O)N3CCCCC3)ccc2n1C` gave Vaccinia mCherry -21% and Vaccinia Venus -18%.

(next part)
Screening Cc1cccc(CNC(=O)c2ccc3c(c2)c(C)c(C)n3Cc2ccccc2)c1 returned Vaccinia mCherry -13% and Vaccinia Venus -5%.
CC(=O)c1ccc(N2CCN(C(=O)c3nn(Cc4ccccc4)c(=O)c4ccccc34)CC2)cc1 was read as Vaccinia mCherry -17% and Vaccinia Venus -8%.
O=C(Cn1nnc(-c2ccc([N+](=O)[O-])cc2)n1)NNC(=O)c1ccccc1 was read as Vaccinia mCherry -6% and Vaccinia Venus -4%.
Screening CCCCN(C(=O)C1CCCO1)c1c(N)n(CCC)c(=O)[nH]c1=O (stereo not given) returned Vaccinia mCherry -10% and Vaccinia Venus -2%.
`COc1cccc(CNC(=O)C(Cc2ccccc2)NS(=O)(=O)c2ccc3c(c2)oc(=O)n3C)c1` (stereo not given) gave Vaccinia mCherry -9% and Vaccinia Venus 5%.
`O=C(O)c1cc2n(n1)CCN(Cc1ccccc1Cl)C2=O` gave Vaccinia mCherry -7% and Vaccinia Venus -7%.
`COc1cc(NC(=O)c2cc3c(Cl)nc4ccccc4c3s2)cc(OC)c1OC` gave Vaccinia mCherry inactive and Vaccinia Venus -3%.
For CCOC(=O)N1CCN(S(=O)(=O)c2cc(Cl)c(OC)cc2Cl)CC1 the results were Vaccinia mCherry -4% and Vaccinia Venus -12%.
Screening CCCCCCCCCCCC(=O)NC(C(=O)OCC)C(O)c1cccc([N+](=O)[O-])c1 (stereo not given) returned Vaccinia mCherry -21% and Vaccinia Venus -29%.
Screening COc1cc(N2C(=O)NC3CC2(C)Oc2ccccc23)cc(OC)c1OC (stereo not given) returned Vaccinia Venus -14%.
`CCOc1ccc(NC(=O)CN(C)C(=O)c2c(-c3c(F)cccc3Cl)noc2C)cc1OCC` gave Vaccinia mCherry inactive and Vaccinia Venus -26%.
For CCOc1ccc(C2C(C(=O)c3cccs3)=C(O)C(=O)N2CCCn2ccnc2)cc1 (stereo not given) the results were Vaccinia mCherry -13% and Vaccinia Venus -15%.
`COc1cccc(CNC(=O)c2c(OC)cc(=O)n3c2CCN(C(=O)C2=C(C)OCCO2)CC3)c1` gave Vaccinia mCherry -12% and Vaccinia Venus -8%.
Cc1ccc(S(=O)(=O)Nc2c(C)nc3nc(C)[nH]n3c2=O)c(C)c1 was read as Vaccinia mCherry -10%&2% and Vaccinia Venus 4%&-7%.
`NC(=S)N/N=C\c1c2ccccc2cc2ccccc12` gave Vaccinia mCherry inconclusive and Vaccinia Venus inconclusive.
Cc1ccc(-c2noc(-c3cccnc3NCc3ccc(Cl)cc3)n2)cc1 was read as Vaccinia mCherry -8% and Vaccinia Venus 5%.
For CC1CCN(c2nc3ccc(C(=O)N4CCN(c5ccccc5)CC4)cc3s2)CC1 the results were Vaccinia mCherry -11% and Vaccinia Venus -20%.
Cc1ccc(-n2c3c(cc(C(=O)NCc4ccco4)c2=O)C(=O)CCC3)cc1 was read as Vaccinia mCherry -1% and Vaccinia Venus -6%.
`CCc1nc2nc(C)cc(Nc3ccc(OC)cc3OC)n2n1` gave Vaccinia mCherry -2% and Vaccinia Venus -6%.
CC1CCN(C(=O)c2[nH]cnc2C(=O)N[C@@H](C)c2ccccc2)CC1 was read as Vaccinia mCherry -10% and Vaccinia Venus -15%.
For Cn1nc(C(F)(F)F)c(C#N)c1N1CCN(c2cccc(C(F)(F)F)c2)CC1 the results were Vaccinia mCherry inactive[1.46 µM] and Vaccinia Venus -16%.

High-throughput results as filed in PubChem.
